# High-throughput results deposited in PubChem by Broad Institute.
# NOMO-1 viab = STK33 inhibitor candidate reducing NOMO-1 cell viability | NOMO-1 AML viability, CellTiter-Glo luminescence, 72 h | inhibition, % (no concentration beside the values) | 7.5% of 37,000 active;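 active means most replicates above 80%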;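 further: wells of about 30 µL received 25 nL stock; 0% = median of vehicle wells and 100% = reference inhibitor level; the first replicate is given; inactives centre near 10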
# The depositor's hits bear a star.
molecule | NOMO-1 viab
C[C@@H]1CN([C@H](C)CO)C(=O)Cc2cc(NC(=O)Cc3ccccc3)ccc2O[C@H]1CN(C)C(=O)Nc1ccc2c(c1)OCO2 | -3.4
Cc1ccc(NC(=O)CSc2nnc(-c3ccncc3)n2-c2ccc(Cl)cc2)cc1F | 28.7
O=C(CC1NCCNC1=O)Nc1cccc(Cl)c1 (stereo unspecified) | -8.9
O=C(CSc1nnc(-c2ccccc2)n1-c1ccccc1)N1CCOCC1 | 27.7
C[C@H]1CN([C@@H](C)CO)C(=O)Cc2cc(NC(=O)Nc3ccc4c(c3)OCO4)ccc2O[C@H]1CN(C)S(C)(=O)=O | 5.8
N#Cc1c(NC(=O)C2CC(c3ccccc3O)=NO2)sc2c1CCCC2 (stereo unspecified) | -8.5
Cc1ccc(S(=O)(=O)N(C)C[C@H]2Oc3c(NC(=O)C4CCCCC4)cccc3C(=O)N([C@H](C)CO)C[C@H]2C)cc1 | -0.2
CCCN(Cc1cc2cccc(C)c2[nH]c1=O)S(=O)(=O)c1ccccc1 | 27.9
Cc1noc(C)c1NC(=O)Nc1ccc2c(c1)CC(=O)N([C@@H](C)CO)C[C@H](C)[C@H](CN(C)S(=O)(=O)c1c(C)noc1C)O2 | 17.3
CN(C)/C=C/C=C1\N=C(c2ccccc2)OC1=O | 15.1
C[C@H]1CN([C@@H](C)CO)C(=O)c2cc(NS(=O)(=O)c3cccs3)ccc2O[C@@H]1CN(C)Cc1ccc(-c2ccccc2)cc1 | 30.5
C[C@H]1CN([C@@H](C)CO)C(=O)c2cc(NC(=O)Nc3ccc4c(c3)OCO4)ccc2O[C@@H]1CN(C)Cc1ccc(C(=O)O)cc1 | 31.8
O=C(CN(C1CCCCC1)S(=O)(=O)c1ccc(Cl)cc1)Nc1ccccc1F | 37.4
COc1cc(NS(=O)(=O)c2ccc(NC(=O)C34CC5CC(CC(C5)C3)C4)cc2)ncn1 | 8.8
C[C@@H]1CN([C@H](C)CO)C(=O)Cc2cc(NS(C)(=O)=O)ccc2O[C@H]1CN(C)Cc1ccc(-c2ccccc2)cc1 | 64.5
Cc1ccc(S(=O)(=O)N(C)C[C@H]2Oc3ccc(NC(=O)C4CC4)cc3C(=O)N([C@H](C)CO)C[C@H]2C)cc1 | 32.5
CCOc1ccc(C(=O)c2ccc(O)c(O)c2O)cc1 | 27.6
C[C@H](CO)N1C[C@H](C)[C@@H](CN(C)Cc2ccc(C(=O)O)cc2)Oc2ccc(NS(=O)(=O)c3ccccc3)cc2C1=O | 21.3
C[C@@H]1CN([C@H](C)CO)C(=O)c2cc(NC(=O)CCN3CCOCC3)ccc2O[C@H]1CN(C)S(=O)(=O)c1cn(C)cn1 | -4.1
CC(C)NC(=O)Nc1cccc2c1O[C@@H](CN(C)S(=O)(=O)c1ccc(Cl)cc1)[C@@H](C)CN([C@H](C)CO)C2=O | 25.7
CCc1ccc(NC(=O)CSc2nnc(C)n2-c2ccccc2)cc1 | -28.9
Cc1ccc(S(=O)(=O)Nc2cccc3c2O[C@@H](CN(C)C(=O)Nc2c(C)noc2C)[C@@H](C)CN([C@@H](C)CO)C3=O)cc1 | 17.2
COC(=O)c1ccccc1NC(=O)CSc1[nH]c(=O)cc(C)c1C#N | 14.6
C[C@H](CO)N1C[C@H](C)[C@H](CN(C)S(=O)(=O)c2ccccc2)Oc2c(NS(=O)(=O)c3cccs3)cccc2C1=O | 5.6
CCOc1ccc2nc(NS(=O)(=O)c3ccc(C)c([N+](=O)[O-])c3)sc2c1 | 7.9

# Brought forward from above: 2 entries, then new ones.
molecule | NOMO-1 viab
C[C@H](CO)N1C[C@H](C)[C@H](CN(C)S(=O)(=O)c2ccccc2)Oc2c(NS(=O)(=O)c3cccs3)cccc2C1=O | 5.6
CCOc1ccc2nc(NS(=O)(=O)c3ccc(C)c([N+](=O)[O-])c3)sc2c1 | 7.9
COc1ccc(S(=O)(=O)N(C)C[C@@H]2Oc3c(NC(=O)C4CC4)cccc3C(=O)N([C@@H](C)CO)C[C@@H]2C)cc1 | 22.2
Cc1noc(C)c1NC(=O)Nc1ccc2c(c1)C(=O)N([C@H](C)CO)C[C@H](C)[C@@H](CN(C)Cc1ccc(C(F)(F)F)cc1)O2 | 21.1
C/C=C/C1C2OC3=C(C(=O)OC3(C)O)C(=O)C1(C)C1CC(O)C(C)CC1C2O (stereo unspecified) | -9.0
CCOc1ccccc1NC(=O)CSc1nc2sc(C)c(C)c2c(=O)n1-c1ccccc1 | 18.8
Cc1noc(C)c1NC(=O)Nc1ccc2c(c1)CC(=O)N([C@H](C)CO)C[C@@H](C)[C@@H](CN(C)Cc1ccccc1)O2 | 11.6
COc1c(O)cc2oc(-c3ccc(O[C@@H]4O[C@H](CO)[C@@H](O)[C@H](O)[C@H]4O)cc3)cc(=O)c2c1O | 78.0
C[C@H]1CN([C@@H](C)CO)C(=O)c2cc(NC(=O)CCCN(C)C)ccc2O[C@@H]1CN(C)Cc1ccccc1 | -22.7
Cc1noc(C)c1NC(=O)N(C)C[C@@H]1Oc2c(NS(=O)(=O)c3ccccc3)cccc2C(=O)N([C@H](C)CO)C[C@@H]1C | -6.8
Cc1noc(C)c1NC(=O)N(C)C[C@H]1Oc2c(NC(=O)NC3CCCCC3)cccc2C(=O)N([C@@H](C)CO)C[C@@H]1C | 6.4
COc1ccc(NC(=O)Cn2cnc3sc(-c4ccccc4)cc3c2=O)c([N+](=O)[O-])c1 | 0.1
Cc1nnc(SCc2ccc(C(=O)c3ccc(Cl)cc3)o2)n1-c1ccccc1 | -16.2
C[C@H](CO)N1C[C@H](C)[C@H](CN(C)CC2CCCCC2)Oc2c(NC(=O)Nc3ccc(C(F)(F)F)cc3)cccc2C1=O | 116.3*
CNC[C@@H]1OCCCC[C@@H](C)Oc2ccc(NS(=O)(=O)c3cccs3)cc2C(=O)N([C@H](C)CO)C[C@@H]1C | 1.5
c1ccc(Oc2nc(Oc3ccccc3)nc(Oc3ccccc3)n2)cc1 | 0.5
Cc1noc(C)c1NC(=O)Nc1ccc2c(c1)CC(=O)N([C@@H](C)CO)C[C@H](C)[C@H](CN(C)CC1CC1)O2 | -10.2
COC(=O)c1ccccc1NC(=O)CSc1n[nH]c(-c2ccccc2Cl)n1 | 25.8
COc1ccc(CN(C)C[C@H]2Oc3c(NS(C)(=O)=O)cccc3C(=O)N([C@@H](C)CO)C[C@@H]2C)cc1 | -17.6
C[C@H]1CN([C@@H](C)CO)C(=O)Cc2cc(NC(=O)Cc3ccccc3)ccc2O[C@H]1CN(C)C(=O)Nc1cccc2ccccc12 | -5.9
Cc1noc(C)c1NC(=O)Nc1cccc2c1O[C@H](CN(C)C(=O)Nc1c(C)noc1C)[C@@H](C)CN([C@H](C)CO)C2=O | 4.5
Cc1cc(C)c(C)c(S(=O)(=O)NCC(=O)Nc2ccc3c(c2)OCCO3)c1C | 4.0
C[C@H](CO)N1C[C@H](C)[C@@H](CN(C)CC2CCCCC2)Oc2ccc(NC(=O)CCN3CCOCC3)cc2C1=O | -15.7
COc1ccc(S(=O)(=O)N(C)C[C@H]2Oc3ccc(NC(=O)CCCCCC(=O)Nc4ccccc4N)cc3C(=O)N([C@H](C)CO)C[C@@H]2C)cc1 | 8.8
C[C@H]1CN([C@@H](C)CO)C(=O)Cc2cc(N(C)C)ccc2O[C@H]1CN(C)Cc1ccc(Oc2ccccc2)cc1 | 52.1
CC(C)NC(=O)Nc1ccc2c(c1)C(=O)N([C@H](C)CO)C[C@H](C)[C@H](CN(C)CC1CC1)O2 | 7.3
c1ccc(-c2nn3c(C4COc5ccccc5O4)nnc3s2)cc1 (stereo unspecified) | -7.7

# Some values from the results shown.
# For NOMO-1 viab, COc1ccc(S(=O)(=O)N(C)C[C@@H]2Oc3c(NC(=O)C4CC4)cccc3C(=O)N([C@@H](C)CO)C[C@@H]2C)cc1 is listed with 22.2
# For NOMO-1 viab, C[C@@H]1CN([C@H](C)CO)C(=O)Cc2cc(NC(=O)Cc3ccccc3)ccc2O[C@H]1CN(C)C(=O)Nc1ccc2c(c1)OCO2 is listed with -3.4

# Next section
molecule | NOMO-1 viab
Cc1ccnc(SCc2cccc(C(=O)O)c2)n1 | 1.0
COc1ccc(C(=O)CSc2nnc(CC(C)O)n2C)cc1 (stereo unspecified) | 0.9
CCOC(=O)c1cc(COc2ccc3oc4ccccc4c3c2)c(C)o1 | 32.1
COc1ccc(NC(=O)N(C)C[C@H]2Oc3c(NS(C)(=O)=O)cccc3C(=O)N([C@@H](C)CO)C[C@H]2C)cc1 | 8.6
C[C@H]1CN([C@@H](C)CO)C(=O)Cc2cc(NC(=O)Cc3ccccc3)ccc2O[C@@H]1CN(C)S(=O)(=O)c1cccs1 | 2.7
COc1ccc(CCNC(=O)C2OCCc3ccccc32)cc1OC (stereo unspecified) | 12.6
C[C@H]1CN([C@@H](C)CO)C(=O)c2cccc(NS(=O)(=O)c3ccc(Cl)cc3)c2O[C@@H]1CN(C)S(=O)(=O)c1cccs1 | -8.7
Cn1c(=O)c2c(ncn2CC(O)COc2ccccc2)n(C)c1=O (stereo unspecified) | -3.0
C[C@@H]1CCCCO[C@@H](CN(C)S(=O)(=O)c2ccccc2)[C@@H](C)CN([C@H](C)CO)C(=O)c2cc(NC(=O)CCCCCC(=O)Nc3ccccc3N)ccc2O1 | 22.9
Cc1noc(C)c1NC(=O)Nc1cccc2c1O[C@@H](CN(C)C(=O)NC(C)C)[C@H](C)CN([C@@H](C)CO)C2=O | 8.7
Cc1noc(C)c1NC(=O)N(C)C[C@H]1Oc2ccc(NS(=O)(=O)c3c(C)noc3C)cc2C(=O)N([C@H](C)CO)C[C@@H]1C | 20.6
COc1ccc(CN(C)C[C@@H]2Oc3ccc(NC(=O)NC(C)C)cc3CC(=O)N([C@@H](C)CO)C[C@@H]2C)cc1 | 11.1
C[C@@H]1CN([C@@H](C)CO)C(=O)c2cccc(NS(=O)(=O)c3ccccc3)c2O[C@@H]1CN(C)S(=O)(=O)c1ccc(Cl)cc1 | 20.7
COC(=O)CNC(=O)c1cc2nc(-c3ccc(C)c(C)c3)cc(C(F)(F)F)n2n1 | 22.8
CC(C)NC(=O)Nc1cccc2c1O[C@@H](CN(C)Cc1ccc(Oc3ccccc3)cc1)[C@@H](C)CN([C@H](C)CO)C2=O | 2.5
COc1ccc(NC(=O)N(C)C[C@@H]2Oc3ccc(NC(=O)Nc4ccccc4)cc3C(=O)N([C@H](C)CO)C[C@H]2C)cc1 | -0.4
C[C@@H]1O[C@@H](O[C@H]2[C@@H]3C=CO[C@@H](O[C@@H]4O[C@H](CO)[C@@H](O)[C@H](O)[C@H]4O)[C@@H]3[C@@]3(CO)O[C@@H]23)[C@H](OC(=O)/C=C/c2ccccc2)[C@H](O)[C@H]1O | 31.9
C[C@H]1CN([C@@H](C)CO)C(=O)Cc2cc(NC(=O)Cc3ccccc3)ccc2O[C@@H]1CN(C)Cc1ccccc1 | 9.1
CC(=O)OC[C@@]12C(=O)C[C@@H](C)[C@]3(C[C@@H](c4ccoc4)OC3=O)[C@H]1CC[C@H](O)[C@]21CO1 | 5.7
COc1ccc(OC)c(NC(=O)COc2c(C)cc(Cl)cc2Cl)c1 | -10.3
CC(C)NC(=O)N(C)C[C@@H]1Oc2ccc(NC(=O)c3ccncc3)cc2C(=O)N([C@H](C)CO)C[C@H]1C | -4.3
C[C@@H]1CN([C@H](C)CO)C(=O)c2cccc(NS(=O)(=O)c3ccc(F)cc3)c2O[C@H]1CN(C)C(=O)Nc1ccccc1 | -7.0
CC(C)NC(=O)N(C)C[C@@H]1Oc2ccc(NC(=O)C3CCCCC3)cc2C(=O)N([C@H](C)CO)C[C@H]1C | 26.3
CC(C)NC(=O)N(C)C[C@@H]1Oc2ccc(NC(=O)Nc3ccc(F)cc3)cc2CC(=O)N([C@H](C)CO)C[C@H]1C | 20.9
Cc1ccc(C)c(N(CC(=O)Nc2ccc(I)cc2)S(C)(=O)=O)c1 | 15.9
CCCCn1nnnc1NCc1cccnc1 | 11.5
CCOC(=O)c1c(CSc2nc(C)cc(C)n2)nc2c3ccccc3ccn12 | 2.8
C[C@@H]1O[C@@H](Oc2c(-c3ccc(O)c(O)c3)oc3cc(O)cc(O)c3c2=O)[C@H](O)[C@H](O)[C@H]1O | -16.3
C[C@H]1CN([C@@H](C)CO)C(=O)c2cccc(NS(=O)(=O)c3ccc(F)cc3)c2O[C@@H]1CN(C)Cc1ccc(Oc2ccccc2)cc1 | 59.1
C[C@H]1CN([C@@H](C)CO)C(=O)c2cccc(NC(=O)Nc3ccc(C(F)(F)F)cc3)c2O[C@H]1CN(C)C(=O)Nc1ccc2c(c1)OCO2 | 92.3*
COc1ccccc1NC(=O)CNC(=O)c1ccc(Cl)cc1Cl | 10.4
COc1cc2c(cc1NC(=O)CSc1ccccn1)oc1ccccc12 | 50.8
Cc1ccc(S(=O)(=O)N(C)C[C@@H]2Oc3c(NC(=O)C4CC4)cccc3C(=O)N([C@H](C)CO)C[C@@H]2C)cc1 | -0.1
C[C@H](CO)N1C[C@H](C)[C@@H](CN(C)Cc2ccc(Cl)c(Cl)c2)Oc2c(NS(=O)(=O)c3cn(C)cn3)cccc2C1=O | 31.0
C[C@@H]1CN([C@H](C)CO)C(=O)c2cc(NC(=O)CCCN(C)C)ccc2O[C@H]1CN(C)S(C)(=O)=O | 25.8
N#C/C(=C(\O)c1ccc(C(=O)c2ccccc2)cc1)c1nc2ccccc2s1 | 34.9
Cn1c(SCC(=O)Nc2ccccc2C(F)(F)F)nnc1-c1ccc(NC(=O)c2ccc(F)cc2)cc1 | 21.1
C[C@@H]1CN([C@H](C)CO)C(=O)c2cc(NS(=O)(=O)c3ccc(Cl)cc3)ccc2O[C@H]1CN(C)CC1CC1 | 7.1

# Reprinted at random: four entries already listed.
molecule | NOMO-1 viab
C[C@@H]1CN([C@H](C)CO)C(=O)c2cc(NS(=O)(=O)c3ccc(Cl)cc3)ccc2O[C@H]1CN(C)CC1CC1 | 7.1
C[C@H](CO)N1C[C@H](C)[C@@H](CN(C)Cc2ccc(Cl)c(Cl)c2)Oc2c(NS(=O)(=O)c3cn(C)cn3)cccc2C1=O | 31.0
N#C/C(=C(\O)c1ccc(C(=O)c2ccccc2)cc1)c1nc2ccccc2s1 | 34.9
C[C@H]1CN([C@@H](C)CO)C(=O)c2cccc(NC(=O)Nc3ccc(C(F)(F)F)cc3)c2O[C@H]1CN(C)C(=O)Nc1ccc2c(c1)OCO2 | 92.3*

# A portion of the library; count on the stated rates, not on these rows.
